From PubChem
TRPML1 blocker – blocks the human TRPML1 channel; hit rate 0.02% among 390,000; AID 624415; activity change, negative = inhibition, % (concentration not given with the values); TRPML1-inducible cells, Ca2+ dye fluorescence, FDSS; hits give low values; inhibition of EC80 agonist-evoked calcium signal; Q9GZU1; in the data active means activity change below about -50%; inconclusive means about -30% to -50%; inactive means above about -30%;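 note: stimulus is agonist 54-4 at its EC80 concentration; % is set by controls: 0 for no effect and ±100 for the full control effect; compound concentration not given in the record; the text of the record puts the active cut at -80%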
Target sequence (Q9GZU1 whole entry, looked up): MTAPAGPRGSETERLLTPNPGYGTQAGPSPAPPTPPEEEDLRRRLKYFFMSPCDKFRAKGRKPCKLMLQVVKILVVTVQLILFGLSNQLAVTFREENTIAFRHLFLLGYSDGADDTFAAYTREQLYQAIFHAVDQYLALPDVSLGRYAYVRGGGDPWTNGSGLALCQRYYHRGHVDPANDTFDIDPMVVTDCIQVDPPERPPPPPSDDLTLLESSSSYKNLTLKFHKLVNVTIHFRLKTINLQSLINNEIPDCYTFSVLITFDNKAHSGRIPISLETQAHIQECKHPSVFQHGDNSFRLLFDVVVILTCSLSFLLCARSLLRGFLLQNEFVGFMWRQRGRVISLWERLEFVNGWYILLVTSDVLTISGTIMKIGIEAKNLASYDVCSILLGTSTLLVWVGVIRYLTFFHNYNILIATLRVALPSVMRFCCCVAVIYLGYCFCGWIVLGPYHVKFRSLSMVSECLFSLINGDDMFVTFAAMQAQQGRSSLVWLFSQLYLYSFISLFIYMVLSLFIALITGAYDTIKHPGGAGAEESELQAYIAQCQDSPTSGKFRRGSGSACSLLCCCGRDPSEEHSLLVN
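TRPML1-DL cells, Tet-induced overnight (~16 h, 37 °C) at 1,500 cells/well, were loaded with Ca8 no-wash dye plus quencher for 45-90 min at room temperature. Compounds were pinned during FDSS kinetic reading; agonist 54-4 at EC80 (4 uM final) then added.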
gsp ag – agonists of gsp mutant (McCune-Albright syndrome); gsp mutant cells, cAMP HTRF, 30 min; control for the full effect not named in the record; Potency, µM (doses to about 76.9 µM), without a hit: at the highest dose activation (cAMP increase), usual class: activators; hit rate 0.13% among 340,000; AID 624287; active = well fitted activation curve with a large enough effect; inconclusive = small, poorly fitted or top-dose-only effect, or another doubt; inactive = no such curve, though single readings can be large or run the other way; cell line not stated here;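 note: phosphodiesterase inhibitor Ro 20-1724 added with compounds to block cAMP breakdown; potency is the fitted concentration of half-maximal effect; nearly all actives have a fitted effect of over 60% in size; about a fifth of the inactives were tested at one dose only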
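Cells stably selected in G418 were plated at 2000/well, grown 16-24 hr, then given compounds in DMSO with the PDE inhibitor […] (300 uM solution added) for 30 min at 37C; cAMP was read by HTRF.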
Menin-MLL FL inh – menin-MLL binding inhibition, fluorescein peptide; Fluorescence polarization, fluorescein-MLL peptide displacement from menin; FP activity change, % at 61.4 µM; 290,000 tested, under 10 active; AID 1766; inconclusive = falling polarisation curve, or a change in total fluorescence; inactive = total fluorescence flat and polarisation flat or rising; no compound was filed as active; the % refers to the polarisation; negative = inhibition;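 note: % of control where 0% means no effect; inhibitors lower the polarisation; unlabelled MLL peptide was the positive control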
gsp antag – antagonists of gsp mutant (McCune-Albright syndrome); gsp-mutant cells, cAMP HTRF, 30 min; control for the full effect not named in the record; Potency, µM (titrated, usually from 76.9 µM), for inactives: at the top dose activity change, negative = inhibition, usual class: inhibitors; hit rate 0.4% among 340,000; AID 624288; active = falling curve of any shape with a large fitted effect; inconclusive = falling curve, mostly with a smaller effect; inactive = flat or rising curve; cell line not stated here;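 note: intracellular cAMP measured with PDE inhibitor Ro 20-1724 present during compound exposure; potency is the fitted concentration of half-maximal effect; % is set by controls: 0 for no effect and ±100 for the full control effect; nearly all actives have a fitted effect of over 65% in size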
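HTRF cAMP measurement after 30 min RT detection following 30 min, 37C compound treatment alongside […] (added as 300 uM solution) in G418-selected cells seeded at 2000/well and grown 16–24 h.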
ClpP mod – qHTS Assay for Activators of ClpP; ATP-dependent Clp protease proteolytic subunit (Bacillus subtilis (strain 168)), P80244; purified B. subtilis ClpP, FRET peptide cleavage, 20 min; Potency, µM (top dose mostly 57.5 µM), for inactives: top-dose activity change, negative = active; hit rate 1.9% among 340,000; active = well fitted falling curve with a large enough effect; inconclusive = small, poorly fitted or top-dose-only effect; inactive = no such curve, though single readings can be large or run the other way; note: potency is the fitted concentration of half-maximal effect; the source files actives as falling curves though it sought activators and does not explain the sign; nearly all actives have a fitted effect of over 65% in size; many hits overshoot -100%
Target sequence (P80244 whole entry, looked up): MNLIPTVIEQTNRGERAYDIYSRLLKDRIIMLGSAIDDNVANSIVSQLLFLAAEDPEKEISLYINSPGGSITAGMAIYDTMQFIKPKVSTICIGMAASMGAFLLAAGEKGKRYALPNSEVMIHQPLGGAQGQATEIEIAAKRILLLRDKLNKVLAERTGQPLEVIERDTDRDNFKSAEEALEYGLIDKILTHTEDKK
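ClpP 10 microg/mL final, pH 8 Tris/KCl buffer with BSA, glycerol, Tween-20; compound pinned in; FRET-FV substrate; RT 20 min; Ex320/Em430; ΔFRET vs ADEP 5.8 microM, DMSO, no enzyme.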
TRPML1 agonist – activates the human TRPML1 channel; Q9GZU1; AID 624414; activation, % (concentration not given with the values); hit rate 0.12% among 410,000; TRPML1-expressing cells, Ca2+ dye fluorescence, FDSS; host cell line not named in the record; reference of the full effect not given here; in the data active = activation above about 50%; inconclusive = about 30% to 50%; inactive = below about 30%; note: 0% is about no effect; the text of the record puts the active cut at 80%
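TRPML1-DL cells, Tet-induced overnight (~16 h, 37 degrees C), loaded 45-90 min at room temperature with Ca8 no-wash calcium dye plus quencher. FDSS fluorescence: 10 s baseline, compound pin-transfer, 110 s agonist read, then EC80 54-4 (4uM final) and 110 s antagonist read.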
Numbers without * were called inactive; ? = inconclusive; . = not tested or not shown; [ ] = remark or other dose.

SMILES	TRPML1 blocker	gsp ag	Menin-MLL FL inh	gsp antag	ClpP mod	TRPML1 agonist
Cc1ccc(NC(=O)C2CCN(S(=O)(=O)c3ccc4c(c3)OCCO4)CC2)nc1	1.4	-13.9%	.	5.3%	-2.7%	1.9
CC(=O)c1ccc(N2CCN(C(=O)CCCn3c(=O)[nH]c4ccccc4c3=O)CC2)cc1	5.0	-1.4%[15.4 µM]	0.0	-9.5%	.	-1.0
CN(CC(N)=O)S(=O)(=O)c1ccc(F)cc1	-9.2	15.6%	0.6	1.0%	1.1%	-0.2
O=C(CCc1nc(-c2ccccc2F)no1)NCc1ccco1	0.6	-10.4%	-0.9	-6.5%	-0.2%	-0.5
Cc1ccc(C(=O)CNc2cccc([N+](=O)[O-])c2)cc1	2.2	-18.2%[15.4 µM]	?	-1.1%	.	-0.1
Cc1cccc(-n2c(SCC(=O)Nc3ccccc3Cl)nc3n[nH]c(C)c3c2=N)c1	28.0	.	.	.	?	4.4
O=C(COC(=O)c1ccc(C(F)(F)F)cc1)NC(=O)NC1CCCC1	-18.3	25.0%	.	12.2%	-0.3%	-0.2
O=[N+]([O-])c1ccc2c(c1)[nH]c(=S)n2-c1ccccc1	6.3	3.1%[15.4 µM]	1.0	-0.4%	0.4%	1.5
CC(=O)N1CCc2cc(S(=O)(=O)CCC(=O)NCc3ccc4c(c3)OCO4)ccc21	1.5	-13.9%	4.4	5.0%	0.5%	-0.8
COc1cc(NC(=O)C23CC4CC(C2)CC(n2cnc([N+](=O)[O-])n2)(C4)C3)cc(OC)c1	0.1	-54.2%	-0.6	-32.9%	2.0%	-0.6
Cc1c(-c2ccccc2)sc(Br)c1C(=O)N1CCOCC1	8.6	-2.8%	-1.8	3.0%	-1.2%	-0.5
COc1cc(NC(=O)c2nn(-c3ccc(F)cc3)c(=O)n(C)c2=O)cc(OC)c1OC	16.5	.	.	.	0.4%	0.6
CC12CCC(C(=O)N3CCN(c4ccccc4)CC3)(CC1=O)C2(C)C (configuration not stated)	10.3	3.4%	-2.6	0.1%	0.8%	-0.2
O=C(OC1CCOC1=O)c1cncc(Br)c1 (configuration not stated)	-20.6	?	0.2	3.1%	0.8%	0.5
CC(C)NC(=O)c1sc2c(c1C(=O)Nc1cccnc1)CCCC2	0.8	2.5%	0.9	-13.5%	-7.8%	-0.2
Cc1ccc(/C=N/NC(=O)c2nnn(-c3nonc3N)c2CSc2ccccc2)cc1	10.9	9.7%	5.0	-4.2%	0.7%	2.1
COc1ccc(-n2c(=O)c3ccccc3n(Cc3ccccc3C)c2=O)c(OC)c1	0.8	.	.	.	-19.5%	0.1
CC(=O)N1CCN(c2ccccc2NC(=O)c2cc(Br)ccc2Cl)CC1	11.2	1.6%	0.0	-9.2%	1.4%	1.1
CN(Cc1cccs1)C(=O)c1ccc(S(=O)(=O)N2CCCCC2)cc1	1.1	-2.3%	1.1	6.8%	-0.4%	0.4
Cc1ccc2nc(-c3ccc(Cl)cc3)c(CC3CCCCC3)n2c1	7.1	.	.	.	-14.4%	-0.2
CCN(Cc1cc(=O)n2cc(Cl)c(C)c(Cl)c2n1)Cc1nc2ccccc2c(=O)[nH]1	4.9	5.1%[15.4 µM]	1.8	.	.	-0.7
COc1cccc(C(=O)Nc2ccc3nc(SCC(=O)N4CCc5ccccc54)sc3c2)c1	16.7	.	.	.	3.9%	0.9
O=C(Nc1ccc(Cl)cc1)N(CCCN1CCOCC1)Cc1cccs1	11.5	?	-3.1	1.6%	-0.2%	-0.4
O=C1N(Cc2ccc3c(c2)OCO3)c2ccccc2C1(O)c1c[nH]c2ccccc12 (configuration not stated)	-7.8	20.4%	-0.1	7.5%	1.1%	0.5
Cc1cccc(C(=O)Oc2ccccc2C2C[C@]3(C)CC(=O)NC3N2C(=O)c2cccc(C)c2)c1 (some centres not stated)	50.2	6.6%	-1.5	4.9%	1.7%	0.0

More compounds.
SMILES	TRPML1 blocker	gsp ag	Menin-MLL FL inh	gsp antag	ClpP mod	TRPML1 agonist
Cc1ccc(NC2=C/C(=N/S(=O)(=O)c3cccs3)c3ccccc3C2=O)cc1	52.6	-33.1%[inhibitor]	.	-14.8%	-18.8%	3.5
CCCNc1nc2c(c(=O)[nH]c(=O)n2C)n1Cc1cccc(Br)c1	-5.5	25.9%	2.5	-5.2%	0.4%	0.0
COc1ccccc1C1CC(=O)Oc2cc(C)cc(C)c21 (configuration not stated)	-13.1	.	-0.9[94.6 µM]	-6.2%	-1.8%	0.7
CCn1ccnc1CN1CCCC(CO)(Cc2cccc(OC)c2)C1 (configuration not stated)	0.5	-4.0%[15.4 µM]	5.5	23.1%	.	-0.5
COc1ccccc1S(=O)(=O)Cc1ccc(C(=O)N2CCN(c3ccccn3)CC2)o1	9.3	-36.7%[inhibitor]	-0.7	-14.7%	-13.1%	-0.1
CCOC(=O)CSc1nnc(Cn2nnc(-c3ccccc3)n2)n1C	-1.0	?	4.8	-14.0%	0.5%	-0.7
COc1cc(-c2nc(C)c(C(C)=O)n2O)ccc1OCC(=O)Nc1ccc(Cl)cc1	2.0	-41.6%[inhibitor]	-0.8	-21.7%	2.8%	1.1
O=C(CSc1nc2ccccc2c2nc(-c3ccccc3)nn12)Nc1ccc(F)cc1	2.0	.	.	.	-1.0%	-0.2
COc1ccc(CN2CCN(CCc3ccccc3)C(CCO)C2)c(Cl)c1OC (configuration not stated)	-1.2	2.0%	0.6	-3.9%	-0.1%	-0.4
CCS(=O)(=O)N1CCCC(c2nc(-c3cccc(OC)c3)no2)C1 (configuration not stated)	0.4	22.7%	4.3	4.3%	-2.0%	-0.6
Cc1ccc(S(=O)(=O)N2CCC3(CC2)OCCO3)cc1	13.5	-2.9%	1.4	3.9%	-0.5%	-0.3
COc1ccc(-c2nc(SCC(=O)Nc3cc(C)on3)n[nH]2)cc1	-0.6	4.5%	-1.0	-5.1%	-2.3%	0.5
Cc1ccccc1-c1ccc(Nc2ccc(N3CCOCC3)cc2)nn1	-14.7	-33.0%[inhibitor]	3.7	-29.7%	0.8%	0.3
CCOc1ccc2c(C)nc(NC3=NC(C)(C)C=C(C)N3)nc2c1	-0.5	-24.9%	4.4	15.5%	3.98µM*	0.2
Cc1ccc(C2CC(=O)Nc3sc(C(N)=O)c(N)c32)cc1 (configuration not stated)	3.1	1.5%	2.6	-2.6%	-2.8%	1.2
Cn1c(SCc2ccccc2Cl)nc2c([nH]c3ccccc32)c1=O	-0.3	.	.	.	-14.7%	-0.3
CC1Cc2cc(S(=O)(=O)CCC(=O)Nc3ccc(OC(F)(F)F)cc3)ccc2N1C(=O)C1CC1 (configuration not stated)	24.5	.	.	.	2.3%	-0.3
CC1CCCCC12NC(=S)N(c1ccccc1)N2 (configuration not stated)	0.2	-23.8%[15.4 µM]	-0.7	4.7%	.	-0.2
Nc1nc2c(ncn2[C@@H]2O[C@H](CNC(=O)[C@H](N)Cc3cncn3COCc3ccccc3)[C@@H](O)[C@H]2O)c(=O)[nH]1	-9.9	.	.	.	-0.4%	-0.2
Cc1ccc(C)c(N(CC(=O)NC2CCCC2)C(=O)c2cc3cc4cc(C)ccc4nc3s2)c1	18.5	-8.1%	-0.7	?	-0.8%	-0.1
CCOC(=O)[C@@H]1[C@H]2COc3ccc(Br)cc3[C@@H]2N2C(=O)N(c3ccc(Cl)cc3)C(=O)[C@@]12C	1.1	-31.3%[inhibitor]	.	-1.1%	-1.7%	0.5
CCN(CC)CCCn1c(SCC(=O)Nc2cccc(F)c2)nnc1-c1ccoc1C	-6.1	-7.7%[15.4 µM]	-11.6	12.4%	1.1%	-0.3
O=C(/C=C/C(=O)NCc1cccs1)NCc1cccs1	7.4	6.6%[15.4 µM]	4.1	-0.4%	.	0.7
Cc1nonc1OCC(C)(COc1nonc1C)NC(=O)c1ccccc1	-9.5	?	1.6	6.4%	1.3%	-0.5
CCN(CC)S(=O)(=O)c1ccc(C(=O)NCCc2ccccn2)cc1	-3.8	19.4%[15.4 µM]	-1.7	-11.0%	0.6%	-0.7

The list continues:
SMILES	TRPML1 blocker	gsp ag	Menin-MLL FL inh	gsp antag	ClpP mod	TRPML1 agonist
c1ccc(Cn2c[n+](Cc3ccccc3)c3ccccc32)cc1	-1.8	16.1%	.	14.1%	0.3%	-0.5
CC1CCCN(c2ncnc3c2nnn3C)C1 (configuration not stated)	-4.4	.	.	.	2.0%	-0.6
CC1(C)CC(=O)C=C(c2ccc(-c3cnc4ccccc4c3)cc2)C1=O	2.8	-23.3%	.	.	-0.5%	-0.3
O=S(=O)(Nc1ccc(-c2ccc(N3CCCCC3)nn2)cc1)c1ccc(OC(F)(F)F)cc1	7.8	.	.	.	-4.6%	27.9
Cn1c(=O)c2c(nc(CN3CCCCC3)n2CCCc2ccccc2)n(C)c1=O	7.2	17.7%	.	13.6%	0.3%	1.7
CCOCCCNC(=O)C1CCN(c2cc(C)nc3c(-c4ccc(Cl)cc4)c(C)nn23)CC1	-12.5	.	.	.	-12.4%	-0.3
O=C(Nc1nnc(-c2cccs2)s1)C1CC1	19.9	-1.8%[15.4 µM]	-5.9	-11.0%	-16.1%	0.3
Cc1cc(Cl)c2ccc(Cl)cc2n1	-7.1	9.3%	-0.4	1.5%	.	0.5
O=C(OCCCOc1ccc(F)cc1)c1ccc(O)cc1O	5.9	-7.2%[15.4 µM]	.	3.5%	-1.7%	-0.1
C=CCC(CC=C)(CNC(=O)C(=O)Nc1ccc(C)cc1)c1ccccc1	-4.1	.	.	.	2.0%	0.0
COc1ccc(S(=O)(=O)NC(=O)C2(C)CCN2C(=O)CCc2ccc(Cl)cc2Cl)cc1 (configuration not stated)	2.6	.	.	.	-1.2%	0.0
O=C(NCCCN1CCN(c2ccccc2)CC1)C1CCCN(c2ncnc3c2nc2n3CCCCC2)C1 (configuration not stated)	-20.5	?	0.8	-7.4%	-1.4%	-1.3
O=c1c2cc(Cl)ccc2[nH]c(=S)n1Cc1ccco1	1.0	-7.3%	2.2	-5.1%	-0.5%	0.4
Cc1ccc(C)c(NCC(=O)NNC(=S)Nc2ccccc2)c1	0.5	-60.2%[inhibitor]	3.2	-1.5%	.	-0.8
O=C(CSc1nc2sc3c(c2c(=O)[nH]1)CCCC3)Nc1ccccc1F	-7.2	.	.	.	-3.8%	0.9
Cc1ccc(-c2nnn(CC(=O)O)n2)cc1	5.9	1.9%	2.4	11.4%	-0.7%	1.5
CSc1ccccc1NC(=O)CN(C)CC(=O)Nc1ccccc1F	-19.9	-18.5%	10.7	1.2%	-5.2%	0.2
